S aureus helic – S. aureus DNA helicase inhibition | AID 485395 | actives 0.05% (n = 120,000) | inhibition, %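 (tested at about 80 µM)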 | purified S. aureus helicase, fluorescence unwinding assay; about half of the hits fall short of the stated cut;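 active = both duplicates at 50% or more, or one of them with a favoured structure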;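 also: 0% = mean of negative control wells and 100% = mean of positive control wells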
MgrA DNA FP – S. aureus MgrA-DNA binding modulation; fluorescence polarization; inhibition, %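 (about 10 µg/mL by stock and volumes)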; actives 0.13% (n = 84,000); AID 602314;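 active = above 50% in either of two replicates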;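 also: 0% = protein plus DNA without compound and 100% = DNA alone without protein; higher means less MgrA bound to DNA so lower polarization; one replicate is shown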
Numbers without * were called inactive; nt = no result given; & = joins results of further samples.

SMILES	S aureus helic	MgrA DNA FP
CCN1CNC(=S)N(c2ccccc2)C1	3	0.4
CN(Cc1ccco1)C(=O)C(Cc1ccccc1)NS(=O)(=O)c1ccc2c(c1)CCC(=O)N2 (stereo not given)	-13	nt
CC12C=CC3(CN(Cc4ccccc4)C(=O)C3C1C(=O)NCc1ccco1)O2 (stereo not given)	6	-0.1
Cc1c(Br)c(Br)c(Br)c(Br)c1Br	nt	1.2
Cc1ccc(S(=O)(=O)NC2=NCN(CCOC(=O)c3ccccc3)CN2)cc1	-9	nt
Nc1cc(S(=O)(=O)C(F)(F)F)cc(S(=O)(=O)C(F)(F)F)c1	14	1.1
CCOC(=O)CC1=NN(c2ccccc2)C(=O)/C1=C\c1cc(OC)c(OC)cc1OC	-3	4.0
CC(=O)N1Cc2ccccc2C(C)CC12CCCCC2 (stereo not given)	nt	2.0
O=C(O)c1cccn2c(=O)c3c4c(sc3nc12)CCCC4	4	-0.1
CCOc1ccc(N=Cc2ccc(N(C)CCC#N)cc2)cc1	21	nt
O=C(CCNc1ccc(Cc2ccncc2)cc1)c1ccc(Cl)cc1	14	-8.8
OCCOc1c(Cl)cc(Cl)c2cccnc12	9	7.4
O=C(COC(=O)Cc1ccccc1F)Nc1cccc(Br)c1	-12	-1.1
CC(C)CCn1c(SCC(N)=O)nc2c1c(=O)[nH]c(=O)n2C	nt	-1.0
O=C(Nc1ccc(-c2ccccc2)oc1=O)c1ccccc1	nt	0.8
O=C(O)c1cncc(Cl)c1	-7	nt
Cc1ccc(C(=O)/C=C2\N/C(=N\S(=O)(=O)c3ccc(N)cc3)NC2=O)cc1	-4	3.0
O=C(COc1ccc2c(c1)CCC2)NCCc1ccccn1	-12	nt
CCOC(=O)/C(C#N)=c1\s/c(=C\Nc2ccccc2)c(=O)n1CC	-6	nt
COc1ccccc1S(=O)(=O)N1CCNC(=O)C1	6	nt
Cc1cccc(-n2nc(C)c3c2NC2=C(C(=O)CCC2)C3c2ccccn2)c1 (stereo not given)	5	nt
CCOC(=O)c1c(C)c(C(=O)NCc2ccc(OC)cc2)c(C)n1C	5	-1.8
O=C(O)[C@H](Cc1ccccc1)N1Cc2ccccc2C1=O	-23	nt
Cc1ccccc1C(=O)Nc1cccc(NC(=O)c2ccc(-c3ccc(Cl)cc3Cl)o2)c1	-19	0.9
CCNC(=O)c1sc2ccccc2c1Cl	19	4.5

Reprinted at random: six entries already listed
SMILES	S aureus helic	MgrA DNA FP
COc1ccccc1S(=O)(=O)N1CCNC(=O)C1	6	nt
O=C(COc1ccc2c(c1)CCC2)NCCc1ccccn1	-12	nt
O=C(O)c1cncc(Cl)c1	-7	nt
OCCOc1c(Cl)cc(Cl)c2cccnc12	9	7.4
Cc1ccccc1C(=O)Nc1cccc(NC(=O)c2ccc(-c3ccc(Cl)cc3Cl)o2)c1	-19	0.9
O=C(O)[C@H](Cc1ccccc1)N1Cc2ccccc2C1=O	-23	nt

The listing picks up; the 2 compounds before the break are reprinted first.
SMILES	S aureus helic	MgrA DNA FP
Cc1ccccc1C(=O)Nc1cccc(NC(=O)c2ccc(-c3ccc(Cl)cc3Cl)o2)c1	-19	0.9
CCNC(=O)c1sc2ccccc2c1Cl	19	4.5
O=c1ccn(-c2ccc(-c3ccn[nH]3)cc2)cc1	nt	-2.7
Cc1cc(C(=O)N(Cc2ccco2)Cc2cccs2)no1	-15	nt
O=C(Cc1ccccc1)NNC(=S)Nc1ccccc1	-8	nt
CCOc1ccc(C/C(N)=N\n2cnnc2)cc1	-1	3.0
CCOC(=O)c1ccc(N=c2oc3ccccc3cc2C(=O)Nc2ccccc2)cc1	nt	-1.6
O=C1COCC(=O)N1CCc1c[nH]c2ccccc12	nt	0.1
CCn1c(C(=O)N2CCCC(C(=O)N3CCN(c4cccc(C)c4C)CC3)C2)cc2sccc21 (stereo not given)	6	-0.5
CC12CC(c3ccccc3O1)C(/C(N)=N\NC(=O)c1ccc(F)cc1)C(=O)N2 (stereo not given)	-40	nt
CC1CCN(C(=O)c2cc3n(n2)C(C(F)(F)F)CC(c2ccco2)N3)CC1 (stereo not given)	10	0.7
CC1(C)CC(=O)NC(=Nc2ccc(Br)cc2)C(=O)C1	-7	0.4
C=CCNc1sc2c(N)nc(N)nc2c1C#N	13	-4.2
COC(=O)c1ccccc1NC(=O)c1ccc(-c2ccccc2Cl)o1	-21	nt
CS/C(=C(/C#N)S(=O)(=O)C(C)C)N1CCCC1	nt	0.5
O=C(c1ccc(N2CCc3ccccc32)s1)N1CCCCCC1	10	nt
O=C(CN1CCc2sccc2C1c1cccs1)Nc1cc2[nH]c(=O)[nH]c2cc1Br (stereo not given)	0	nt
CCOC(=O)C1=C(C)C/C(=N\NC(=O)c2ccccc2O)CC1	-5	nt
NC1=NC(=O)C(C(=O)NC2(C(F)(F)F)Oc3cc(Cl)c(Cl)cc3O2)S1 (stereo not given)	5	nt
CSc1ccc(C2C(C(=O)N3CCCCC3)=C(C)NC3=C2C(=O)CCC3)cc1 (stereo not given)	6	nt
COc1ccc(Cl)cc1-c1nc(SCC(=O)NCC(F)(F)F)n[nH]1	-8	nt
Cc1cc(C(=O)COC(=O)c2cnccn2)c(C)n1-c1ccc(OC(F)F)cc1	10	nt
CCCC1CC2(O)CC(C#N)(C(=O)N2)C1(C#N)C#N (stereo not given)	-13	nt
OC(CNCc1ccc(Cl)c(Cl)c1)Cn1ccc2ccccc21 (stereo not given)	nt	0.0
CC(C)(C)c1nocc1C(=O)N1CCOCC1	nt	-2.3
O=C(CSc1nc2ccccc2s1)OCC(=O)c1ccc(F)cc1	12	nt
CC1CCCC(C)N1C(=O)CSc1nc2cc(Cl)ccc2o1 (stereo not given)	15	nt

An excerpt of these results, as a markdown table.
| SMILES | S aureus helic | MgrA DNA FP |
| --- | --- | --- |
| CCNC(=O)c1sc2ccccc2c1Cl | 19 | 4.5 |
| O=c1ccn(-c2ccc(-c3ccn[nH]3)cc2)cc1 | nt | -2.7 |
| Cc1cc(C(=O)N(Cc2ccco2)Cc2cccs2)no1 | -15 | nt |
| O=C(Cc1ccccc1)NNC(=S)Nc1ccccc1 | -8 | nt |

Continued:
SMILES	S aureus helic	MgrA DNA FP
N#Cc1cnc(N2CCc3ccccc32)nc1N	nt	0.1
O=C(c1ccccc1)N1CCN(C2=NS(=O)(=O)c3ccccc32)CC1	9	4.3
Nc1c(C(=O)c2ccccc2)sc2[nH]c(=O)c(C(=O)O)cc12	9	nt
CN(Cc1ccccc1)C(=O)CN1CCN(C(c2ccccc2)c2ccccc2)CC1	-2	nt
Cn1cnnc1SC1c2cccc3cccc(c23)C1NS(=O)(=O)c1ccccc1 (stereo not given)	14	nt
O=C(O)CSCC(=O)Nc1ccccc1Sc1ncnc2cc(-c3ccccc3)sc12	nt	5.4
Cc1cc(OC(C)C(=O)Nn2cnnc2)ccc1Cl (stereo not given)	-11	0.5
CNC(=O)c1ccccc1-[s+]1c2ccccc2c(=O)n1C (stereo not given)	nt	-3.9&2.0
Nc1cc(N)nc(SCCC(=O)O)n1	10	2.2
O=C(O)c1cc2cc(OC(F)(F)F)ccc2[nH]1	nt	-2.0
O=C(/C=C/c1ccccc1)Nc1nc2ccc(S(=O)(=O)N3CCCC3)cc2s1	23	nt
Cc1cc2oc(=O)cc(CN3CCCc4ccccc43)c2cc1C	4	nt
COCc1cc(C)nc(Nc2ccccc2OC)c1C#N	-30	nt
Cc1ccc(-c2nnn(CC(=O)N(CC(=O)NCC3CCCO3)C3CCN(Cc4ccccc4)CC3)n2)o1 (stereo not given)	17	-0.1
Cc1ccc(C)c2[nH]c(=O)c(CN(CCN3CCCC3)C(=O)Nc3cccc(Cl)c3)cc12	7	-2.1
CCNC(=O)c1ccc(C23CC4CC(CC(C4)C2)C3)o1	9	-1.9
O=C(O)CCN1C(=O)c2ccccc2S1(=O)=O	nt	-2.6
CN(CCO)CC(O)c1ccccc1 (stereo not given)	-13	nt
O=C(CN1C(=O)c2ccccc2C1=O)N1CCN(Cc2ccccc2)CC1	17	-1.6
COc1cccc(C(=O)NCc2ccccc2F)c1	-14	nt
COC(=O)c1sccc1NC(=O)c1c(C)nn(-c2ccccc2)c1-n1cccc1	-18	nt
Cc1ccc(NC(=O)CC2(C(F)(F)F)OCCO2)cc1Cl	-14	-1.6
Cc1c(N2C(=O)CSC2c2ccc(F)cc2)c(=O)n(-c2ccccc2)n1C (stereo not given)	-9	nt
CC(=O)Nc1ccc(OC(=O)c2conc2C(C)(C)C)cc1	nt	1.4
Cn1nc(C(=O)OCC(=O)C(C)(C)C)c2ccccc2c1=O	10	nt

The list goes on:
SMILES	S aureus helic	MgrA DNA FP
N#Cc1ccc(NS(=O)(=O)Cc2ccccc2)cc1	2	nt
c1cnc2nc(SCc3ccc(CSc4nc5ncccc5[nH]4)cc3)[nH]c2c1	3	nt
[O-][n+]1onc2c1CCc1c-2nc(-c2ccco2)n1O	2	-1.0
Cn1c(=NC(=O)c2cccc(C(F)(F)F)c2)sc2c3ccccc3ccc21	4	4.4
O=c1oc(-c2cccc(Cl)c2)nc2sc3c(c12)CCCC3	nt	-8.2
CCCc1nncn1NC(=O)OCC	-2	1.2
CC(Oc1ccc(-c2ccccc2)cc1)C(=O)N1CCN(S(C)(=O)=O)CC1 (stereo not given)	16	-1.9
Cn1c(=O)c2c(ncn2CC(=O)NN)n(C)c1=O	4	nt
O=C1C2CC3CC1CC(C(=O)O)(C3)C2	5	3.5
Cn1c2ccccc2c2cc(C(=O)O)ccc21	-3	nt
c1ccc(-c2nnc(-c3ccco3)o2)cc1	-6	0.0
CCOC(=O)c1ccc(N=C(N)SCc2ccccc2)cc1	nt	0.0
O=C(Nc1c(C(=O)N2CCN(c3ncccn3)CC2)oc2ccccc12)c1cc(-c2ccc(F)cc2)on1	9	nt
N/C(CC(=O)NCc1ccccc1)=N\O	-12	nt
CCCC(=O)N(C)c1nnc(-c2ccc(F)cc2)s1	-5	1.4
O=C(Nc1ccc(-c2nc3ccccc3s2)cc1)c1cccc(F)c1	11	2.5
C=CCNS(=O)(=O)c1ccc(SC)cc1	7	-6.7
CCc1nnc(NC(=O)C2CCCO2)s1 (stereo not given)	5	0.8
COc1ccccc1CNS(=O)(=O)c1cccc2cccnc12	nt	-0.9
C=C1O[C@@](CO)(n2cnc3c(N)ncnc32)[C@H](O)[C@@H]1O	nt	4.0
Cc1cc(C)c(Cn2c(=O)n(NC(=O)c3ccccc3)c(=O)c3sccc32)c(C)c1	1	-1.6
Cc1ccc(Oc2ccc(C(F)(F)F)cc2[N+](=O)[O-])c2c1CCC2	nt	-1.5
COc1ccc(C2=NN(C(=O)CSc3n[nH]c(-c4ccc(Br)cc4)n3)C(c3ccco3)C2)cc1 (stereo not given)	-5	nt
O=C(Nc1c[nH]c2cc(Cl)ccc2c1=O)N1CCCCC1	8	3.2
N#CC[S+](O)c1ccccc1 (stereo not given)	nt	-1.6

Following part.
SMILES	S aureus helic	MgrA DNA FP
C=CCSc1nc2ccccc2n1C(=O)c1ccc2c(c1)OCO2	-3	1.6
O=c1c(Cc2ccccc2OCc2ccccc2)coc2ccccc12	nt	1.0
c1ccc(OCCSc2nc3ccccc3n2CCOc2ccccc2)cc1	-3	2.8
CCOC(=O)c1ccc2c(c1)nnn2C	nt	-3.8
O=C(NC1CCN(Cc2ccccc2)CC1)c1ccccc1	4	0.9
CCN1CCN(C(c2cccs2)C(C)NC(=O)Cc2ccc(OC)c(OC)c2)CC1 (stereo not given)	-21	nt
O=C(O)CC(O)(c1ccccc1)C(F)(F)F (stereo not given)	-13	-3.9
CCN1CCN(C(=O)CCc2nc3ccccc3n2-c2ccccc2)CC1	2	nt
Oc1ccc(Cc2ccc(O)c3ncccc23)c2cccnc12	10	nt
Cc1cc(C)n2c(Nc3c(C)cccc3C)c(-c3ccc(Cl)s3)nc2n1	-2	2.2
O=C(O)CCN1C(=O)SC(Nc2cccc3ccccc23)C1=O (stereo not given)	-38	nt
CC(=O)Oc1ccc(-c2ccccc2)cc1	1	3.1
Cc1cc(N2CCOCC2)nc(SCc2cc3c(cc2Cl)OCO3)n1	-3	nt
CCOc1ccccc1NC(=O)COc1ccccc1F	-24	0.0
O=C(CCSCCc1ccncc1)N1CCOCC1	-5	nt
O=C(OCC(=O)c1cccc2ccccc12)c1cccs1	-23	nt
O=C(CN1CCN(Cc2ccc(F)cc2Cl)CC1)NCc1ccccc1	9	1.2
CC(C)(CNC(=O)C1c2ccccc2-c2ccccc21)N1CCOCC1	31	nt
CC(C)Oc1ccc(C2CC(=O)Nc3sc(C(=O)c4ccco4)c(N)c32)cc1 (stereo not given)	6	nt
c1cc(-c2nc3cc4sc(-c5ccn[nH]5)nc4cc3s2)[nH]n1	25	nt
C=CCn1c(=NC(=O)/C=C/c2ccccc2)sc2cc(S(C)(=O)=O)ccc21	13	nt
NS(=O)(=O)c1ccc(NC(=O)CN2CC(=O)NC(=O)C2)cc1	10	0.0
Cc1nc(C(F)(F)F)ccc1C(=O)Sc1ccccc1	nt	-1.8
C/C=C/c1ccc(OCC(=O)OC(C)C(N)=O)c(OC)c1 (stereo not given)	-9	nt
Nc1c2c(nn1-c1ccccc1)CCC2	6	nt

Next part
SMILES	S aureus helic	MgrA DNA FP
COc1ccc(C(=O)CCC(=O)O)c(OC)c1	0	-4.4
Cc1cccc(C)c1NC(=O)C1(N(C)C(=O)Cc2cccs2)CCCCC1	8	nt
O=C1/C(=C\c2ccccn2)Cc2ccccc21	6	-0.2
COc1ccc(-c2oc(/N=C/N3CCCCC3)c(C#N)c2-c2ccc(OC)cc2)cc1	17	-0.9
COc1ccc(Oc2ccc(C(F)(F)F)cc2[N+](=O)[O-])cc1	nt	-4.1
CC1(C)C(=O)OC(c2cccs2)C(C)(C)C1=O (stereo not given)	12	3.3
O=C(NCc1ccc(Cl)cc1)c1cc2c(s1)CCC2	-9	-3.4
C=CCn1c(SC(C)C(N)=O)nc2ccc(Cl)cc2c1=O (stereo not given)	-6	nt
CCCCN1C(=O)SC(Nc2cccc(C)c2)C1=O (stereo not given)	6	nt
O=C(c1ccccc1)N1CCN(CC#CC2(O)CCCCC2)CC1	-1	-3.8
CCOC(=O)CN1CC23C=CC(O2)C(C(=O)NCc2cccs2)C3C1=O (stereo not given)	-4	nt

Compound activity (PubChem)

This is a subset; count on the stated rates, not on these rows.
